H5N1 antiviral: MDCK cell protection from H5N1 avian flu; cytopathic effect, luminescence, 72 h; active compounds read high; no value below 0 was filed and about half of the inactive calls have no number; reference of the scale not given here; inhibition, % at 50 µM; hit rate 0.07% among 96,000; in the data active = inhibition above about 25%
* hit, by the source's call; i = inactive. Some of the compounds tested; the hit share may differ from the screen's.

Compound	H5N1 antiviral
CCSCCOC(=O)C1=C(C)NC(=O)NC1c1cc(OC)ccc1OC (configuration not stated)	0.1
COc1ccc(NC(=O)CC(C)C)c([N+](=O)[O-])c1	i
Cc1ccc(N2C(=O)c3sc4nnc(C)c(=O)n4c3C2=O)cc1	0.1
O=C(Nc1ccc(Cl)cc1)c1cccnc1N1CCCCC1	0.4
Cc1nn(-c2ccccc2)c(Cl)c1C(=O)Nc1c(C)n(C)n(-c2ccccc2)c1=O	0.2
CCc1cc(C=C(Cl)Cl)oc(=O)c1C	1.3
O=C(NCC1CCC(C(=O)O)CC1)OCc1ccccc1 (configuration not stated)	i
OCc1cn(-c2ccccc2)nc1-c1ccco1	0.3
Cc1ccc(-n2c(=O)[nH]cc(C(=O)Nc3ccc4c(c3)OCCO4)c2=O)cc1	2.4
O=C(CN1CCN(S(=O)(=O)c2ccc(F)cc2)CC1)Nc1ccccc1F	3.8
CC1(C)CC(=O)C2=C(C1)OC(N)=C(C#N)[C@@]21C(=O)N(CC(N)=O)c2ccccc21	i
Cn1c(=O)oc2cc(S(=O)(=O)N3CCCC(C(=O)Nc4ccccn4)C3)ccc21 (configuration not stated)	2.6
CCc1cccc(CC)c1N(COC)C(=O)Cn1ccccc1=N	i
O=C(CN(Cc1ccco1)C(=O)CNS(=O)(=O)c1ccc(F)cc1)NCc1ccc(F)cc1	0.2
O=C(c1ccc2ccccc2c1)N1CCN(c2ccc([N+](=O)[O-])c(N3CCOCC3)c2)CC1	i
Cc1ccc(CNC(=O)/C(C#N)=C\c2ccc(N(C)C)cc2)cc1	i
O=C(COC(=O)C1CC(=O)N(Cc2ccco2)C1)c1ccc(OC(=O)c2ccco2)cc1 (configuration not stated)	0.3
O=C(CCl)Nc1cccc(-c2cnc3ccccc3n2)c1	3.2
CCCCN(C)C(=O)c1cn(CC)c2ccc(S(=O)(=O)N(C)C)cc2c1=O	0.8
Cc1cc(C)n2nc(C(=O)Nc3ccc4c(c3)OCO4)nc2n1	i
Cc1ccc2occ(C(c3nnnn3C3CCCC3)N3CCN(C(=O)c4ccco4)CC3)c(=O)c2c1 (configuration not stated)	i
COc1ccc(S(=O)(=O)Nc2c(C)ccc3nsnc23)cc1OC	i
CCOc1ccc(/C=C\C(C)=N\O)cc1	i
Cc1cccc(C(=O)OCc2cnc(Cl)s2)c1	0.4
Cc1nnc(N(C)C(=O)c2cccnc2)s1	1.7

(list continues)
Compound	H5N1 antiviral
CCn1c(=O)n(CC(=O)NCc2ccco2)c(=O)c2ccccc21	3.4
Cc1ccc(N2CCN(S(=O)(=O)N3CCCCCC3)CC2)cc1Cl	i
CO/N=C/NC(=O)NOCc1ccc(Cl)cc1Cl	1.2
Cc1ccc(CNC(=O)Cn2c(=O)oc3ccccc32)o1	0.1
COc1cc(OC)c(C2C(C(=O)Nc3ccc(C)cc3C)=C(C)Nc3ncnn32)cc1OC (configuration not stated)	i
CC(=NCCC1=CCCCC1)c1c(O)n(C)c(=O)n(C)c1=O	0.1
COc1ccc2nc(N3C(=O)CC(Cc4ccc(Cl)cc4)C3=O)sc2c1 (configuration not stated)	i
COc1ccc(C2CC(=O)c3cnc(NC(=O)c4ccccc4)nc3C2)c(OC)c1 (configuration not stated)	i
Cc1occc1C(=O)Nc1sc2c(c1C(N)=O)CCCCC2	1.7
O=c1c2ccccc2cnn1-c1ccc(Cl)cc1	2.2
Cc1cccc(C(=O)/C=C2/c3ccccc3CC(C)(C)N2C)c1	i
CCCS(=O)(=O)N1CCC(C(=O)NCCCN2CCCC2=O)CC1	0.8
COc1ccccc1CNC(=O)C(NS(=O)(=O)c1ccc2c(c1)oc(=O)n2C)C(C)C (configuration not stated)	1.3
CSc1nc2cc3c(cc2n1C(=O)c1ccc(C)cc1)OCCO3	1.0
O=C1CCc2cc(S(=O)(=O)NC(Cc3ccccc3)C(=O)NC3CCCCC3)ccc2N1 (configuration not stated)	i
Cc1[nH]nc2c1C(c1ccccc1)C1=C(CC(C)(C)CC1=O)N2 (configuration not stated)	0.1
O=S(=O)(NCc1ccco1)c1ccc2c(c1)Cc1ccccc1-2	i
Cc1cccc(NC(=O)Cn2c(=O)n3nc(CCn4nc(C)cc4C)nc3c3ccccc32)c1	i
COc1cc(S(=O)(=O)N2CCN(C)CC2)c(OC)cc1Cl	1.4
CC(Oc1ccc(Cl)cc1Cl)C(=O)NCc1ccncc1 (configuration not stated)	3.4
O=C(c1ccc(F)cc1)N1CCN(C(=O)c2cccnc2)CC1	0.6
CCOC(=O)Cc1cc(-c2ccccc2)nc2ccc3ccccc3c12	i
COc1ccc(C(=O)NCC(=O)OCC(=O)c2ccc3c(c2)OCCO3)cc1	i
CC(C)(O)c1cn(-c2nonc2N)nn1	0.1
CCOc1cc(CNCc2cccs2)cc(Br)c1OC	i

Next structures follow.
Compound	H5N1 antiviral
CC(C)Sc1nc2sc3c(c2c2nnc(SCC(=O)NCc4ccco4)n12)CCCC3	2.7
COc1ccc(OC)c(-n2c(-c3ccccc3)n[nH]c2=S)c1	0.4
COc1ccc(F)cc1S(=O)(=O)NC1CCCC1	0.9
COc1cc(NC(=O)c2ccc(NS(=O)(=O)c3c(C)noc3C)cc2)cc(OC)c1	i
CC1OC2(OC1C)C(=O)Nc1ccccc12 (configuration not stated)	i
CS(=O)(=O)N(CC(=O)N1CCN(c2ccccc2F)CC1)c1ccc2c(c1)OCCO2	0.3
CCCc1nc(NCc2ccccn2)c2nnn(Cc3ccccc3F)c2n1	1.5
CC(C)C1Nc2ccc(S(N)(=O)=O)cc2C2C=CCC21 (configuration not stated)	0.1
COc1ccc(C(c2sc3nc(C)nn3c2O)N2CCC(O)CC2)cc1OC (configuration not stated)	1.2
COc1ccc(CN2CCN(S(=O)(=O)c3ccc(F)cc3)CC2)c(OC)c1OC	i
CN(C)S(=O)(=O)c1ccc2c(c1)C(CC(=O)O)OC2=O (configuration not stated)	0.1
COc1ccc(C2=NOC3(CC(=O)N(c4ccc(C)cc4)C3=O)C2)cc1 (configuration not stated)	i
CCOc1ccc(OCC)c(S(=O)(=O)N2CCCCC2)c1	1.1
COc1ccc(NC(=O)CC2C(=O)N(c3cccc(C)c3)C(=O)N2C2CCCCC2)cc1 (configuration not stated)	i
CCOC(=O)C1CCN(C(c2cc3ccc(C)c(C)c3[nH]c2=O)c2nnnn2C2CCCCC2)CC1 (configuration not stated)	0.1
Cc1c(NC(=O)c2noc(C(C)C)c2[N+](=O)[O-])c(=O)n(-c2ccccc2)n1C	i
CC(SCc1cn2cc(Cl)ccc2n1)C(=O)O (configuration not stated)	i
CC(=O)N/C(=N/c1nc(C)cc(C)n1)Nc1ccc(NC(C)=O)cc1	3.4
CCCNc1c(F)c(F)c2c(C)c3ccccc3nc2c1F	0.7
COCCSc1nnc(NC(=O)CSc2ccccc2)s1	i
COc1ccc(NC(=O)NC2(C(=O)N3CCCCCC3)CCCCC2)cc1	i
CC(C)C(=O)N1CCN(c2ccccc2N)CC1	0.6
N#Cc1ccc(NC(=O)C2CC(c3ccc(F)cc3)=NO2)cc1 (configuration not stated)	i
O=C(NC1CCN(C(=O)N2CCOCC2)CC1)c1ccccc1	2.3
COc1ccccc1N1CCSC1C(N)=O (configuration not stated)	1.3

Some of the entries above in a different format:
COc1ccc(F)cc1S(=O)(=O)NC1CCCC1
  H5N1 antiviral: 0.9

CCOc1ccc(OCC)c(S(=O)(=O)N2CCCCC2)c1
  H5N1 antiviral: 1.1

Other structures.
Compound	H5N1 antiviral
CCOC(=O)/C(=C\Nc1ccc(OC(F)(F)F)cc1)Sc1ncc(C(F)(F)F)cc1Cl	i
Cc1c(NC(C)c2cc(Cl)ccc2O)c(=O)n(-c2ccccc2)n1C (configuration not stated)	i
CCCCN1c2ccccc2N(CCCO)c2cc(C)nnc21	i
COC(=O)c1c(NS(=O)(=O)c2cccs2)sc2c1CCCC2	i
CCN(CC(=O)Nc1ccc(OC)c(OC)c1)S(=O)(=O)c1ccc(C)cc1	2.0
CCOC(=O)Cc1csc(-n2sc3ccccc3c2=O)n1	0.6
Cc1[nH]c2ccccc2c1/C=N/Nc1ccc([N+](=O)[O-])cc1S(=O)(=O)Nc1ccc(Cl)cc1	i
Cc1cccc(-n2c(SCC(=O)NCc3ccco3)nc3ccccc3c2=O)c1	0.4
O=C(NC1CCCC1)C(c1ccc(N2CCOCC2)cc1)N(Cc1ccccc1)C(=O)c1ccco1 (configuration not stated)	i
CCOC(=O)C1CCCN(S(=O)(=O)c2cc(OCC(N)=O)c(C)cc2Cl)C1 (configuration not stated)	1.3
O=C1CCCCCN1CSc1nc2ccccc2s1	0.8
Cn1nnnc1SCc1nnc(-c2ccc(Cl)cc2)o1	0.6
CC1CN(Cc2nc3c(c(=O)n(C)c(=O)n3C)n2CC(O)CO)CC(C)O1 (configuration not stated)	1.3
COc1ccc(-n2c(C)cc(=O)c3c2CC(C)(C)CC3=O)cc1	0.5
Cc1ccc(-n2nnnc2SCC(=O)Nc2cccc(NC(=O)c3ccco3)c2)cc1C	i
CCCN1CCN(C(=O)c2ccc(Sc3ccc(C)cc3)c(NC(C)=O)c2)CC1	0.2
COC(=O)Cn1c(CN(Cc2ccccc2)Cc2ccccc2)nc2c1c(=O)[nH]c(=O)n2C	1.8
Cn1c(C(=O)N2CCN(C(=O)c3ccco3)CC2)cc2c(=O)n(C)c3ccccc3c21	3.3
O=C(Cc1cccc2ccccc12)N/N=C/c1ccc(F)cc1	i
CCOc1ccccc1NC(=O)c1cc(S(=O)(=O)N2CCC3(CC2)OCCO3)ccc1F	i
Cn1c2ccc(F)cc2c2ncn(CCCN(CCO)CCO)c(=O)c21	0.3
CCN(CC)c1ccc(/C=c2\sc3nnc(-c4ccccc4Cl)n3c2=O)cc1	0.9
CCOC(=O)C1CCCN(S(=O)(=O)c2ccc(C)cc2)C1 (configuration not stated)	1.1
COc1ccc(N(CC(=O)NN=C2CCCCCCC2)S(=O)(=O)c2ccccc2)cc1Cl	0.5
O=C1c2ccccc2C(=O)N1CCc1nc2ccccc2c(=O)n1Cc1ccco1	1.1

Remaining list, next part:
Compound	H5N1 antiviral
NC(=O)Nc1ccc(Oc2c(F)c(F)c(F)c(F)c2F)cc1	i
O=c1[nH]c2cc3c(cc2cc1C(c1nnnn1CC1CCCO1)N1CCCC1)OCO3 (configuration not stated)	i
CN1C(=O)CC(NNC(=O)c2ccccc2)C1=O (configuration not stated)	i
CN1C(=O)N(C)C(=O)C(CCc2ccccn2)(CCc2ccccn2)C1=O	0.2
Cc1ccccc1CSCCNC(=O)CCSc1ccccc1	0.1
COCCCn1c(C(C)C)nc2oc3cc(OC)ccc3c(=O)c2c1=O	2.5
O=C(c1n[nH]c2ccccc12)N1CCN(S(=O)(=O)c2ccc3ccccc3c2)CC1	0.3
COc1ccc(CN2CC(C(=O)NCC3CCCO3)CC2=O)cc1 (configuration not stated)	1.7
c1ccc(-c2nnc(-c3c[nH]c4ccccc34)nc2-c2ccccc2)cc1	i
O=C(CCCCn1c(=O)c2ccccc2n(CC(=O)Nc2ccccc2)c1=O)NCc1ccco1	0.0
FC(F)(F)c1nnc2sc(-c3cccs3)nn12	i
CCn1nc(NC(=O)c2ccncc2)c2cc3cc(C)ccc3nc21	0.2
O=C(c1ccncc1)c1ccc(N2CCN(C3CC(=O)N(Cc4ccccc4)C3=O)CC2)cc1 (configuration not stated)	1.5
O=C(CN1C(=O)NC2(CCCCCCC2)C1=O)NC(=O)NCc1ccco1	i
O=C(C1CCN(S(=O)(=O)c2cccnc2)CC1)N1CCCCC1	0.9
CCc1ccccc1NC1=NCC(=O)N1Cc1ccc2c(c1)OCO2	i
CC1(C(=O)NC2CCCCCCC2)CCC(=O)N1Cc1ccco1 (configuration not stated)	0.2
O=C(CSc1nc2sc3c(c2c(=O)[nH]1)CCCC3)NCCO	0.5
CCOC(=O)COc1ccc(C(=O)c2ccccc2)c(O)c1	0.5
COC(CN1C(=O)C(O)=C(C(C)=O)C1c1ccccn1)OC (configuration not stated)	0.8
CCCN1CCC(NC(=O)Nc2ccccc2C(=O)OC)CC1	0.2
CCCCNC(=O)c1onc(CSc2cc(C)cc(C)c2)c1C(=O)O	0.3
Cc1sc(-n2c(C)cc(/C=N/n3cnnc3)c2C)c(C#N)c1C	i
Cn1nc(-c2ccc(Cl)cc2)c2cc(C(=O)NCC3CCCO3)sc21 (configuration not stated)	i
N#Cc1c(C(F)(F)F)cc(C2CC2)nc1N1CCCC1	0.7

Nothing new here: 7 of the compounds above.
Compound	H5N1 antiviral
NC(=O)Nc1ccc(Oc2c(F)c(F)c(F)c(F)c2F)cc1	i
O=c1[nH]c2cc3c(cc2cc1C(c1nnnn1CC1CCCO1)N1CCCC1)OCO3 (configuration not stated)	i
CN1C(=O)CC(NNC(=O)c2ccccc2)C1=O (configuration not stated)	i
CN1C(=O)N(C)C(=O)C(CCc2ccccn2)(CCc2ccccn2)C1=O	0.2
Cc1ccccc1CSCCNC(=O)CCSc1ccccc1	0.1
COCCCn1c(C(C)C)nc2oc3cc(OC)ccc3c(=O)c2c1=O	2.5
O=C(c1n[nH]c2ccccc12)N1CCN(S(=O)(=O)c2ccc3ccccc3c2)CC1	0.3

Other structures
Compound	H5N1 antiviral
CC(=O)Oc1cc2c(C(=O)NCCCN3CCOCC3)c(C)oc2c2ccccc12	i
Cc1ccc(NC(=O)C(C)N2C(=O)c3ccccc3C2=O)cc1 (configuration not stated)	i
NC(=O)CN(c1ccccc1)C1SC(=O)N(Cc2ccccc2)C1=O (configuration not stated)	2.7
Cc1csc(=N)n1CC(=O)N1CCc2ccccc21	1.3
O=C(COc1ccccc1)Nc1ncccn1	0.5
O=[N+]([O-])c1ccc(Nc2ccc3ccccc3c2)nc1	i
CC1(C)CC(=O)C(C=NCCN2CCN(C(=O)Cc3ccccc3)CC2)=C(O)C1	0.3
